# Assay outcomes: PubChem BioAssay, several laboratories
# PABP polyA inh: PABP-poly(A) binding inhibition; P11940; PABP-poly(A) RNA binding, fluorescence polarization; AID 2014; actives 1% (n = 290,000); inhibition, % at 35 µM;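 active = 50% or more with normal probe brightness, or confirmed in later tests; inconclusive = above 50% with abnormal brightness, or retests that disagree; inactive = below 50% or failed in later tests; about a fifth of its hits are not listed in these tables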;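 also: calls also rest on retests at 20 µM and on dose response follow-up; controls were probe without protein and protein plus probe with vehicle; some compounds called inactive have numbers as strong as hits; many hits fall short of the cut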
# Target sequence (P11940 whole entry, looked up): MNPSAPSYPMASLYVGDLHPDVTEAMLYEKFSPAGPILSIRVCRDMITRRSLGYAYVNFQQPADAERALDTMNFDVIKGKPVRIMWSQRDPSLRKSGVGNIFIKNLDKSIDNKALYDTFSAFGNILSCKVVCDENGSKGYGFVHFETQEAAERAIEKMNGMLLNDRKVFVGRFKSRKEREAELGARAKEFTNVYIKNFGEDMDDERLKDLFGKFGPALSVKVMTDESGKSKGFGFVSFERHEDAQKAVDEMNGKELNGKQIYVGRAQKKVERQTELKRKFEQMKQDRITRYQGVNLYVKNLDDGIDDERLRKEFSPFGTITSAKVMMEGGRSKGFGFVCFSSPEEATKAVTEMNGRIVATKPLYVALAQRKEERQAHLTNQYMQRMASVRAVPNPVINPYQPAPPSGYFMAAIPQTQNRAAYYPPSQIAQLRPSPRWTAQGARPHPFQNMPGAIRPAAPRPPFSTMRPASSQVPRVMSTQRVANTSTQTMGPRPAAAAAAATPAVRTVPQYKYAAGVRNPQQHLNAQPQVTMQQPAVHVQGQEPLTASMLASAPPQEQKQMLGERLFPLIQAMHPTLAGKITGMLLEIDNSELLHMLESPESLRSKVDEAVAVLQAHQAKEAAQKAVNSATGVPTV
# Yeast UUG start: alters start codon recognition fidelity in yeast | S. cerevisiae UUG-firefly luciferase reporter, luminescence/redox ratio | activity score, % at 18.7 µM | actives 0.13% (n = 350,000) | AID 602363;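 active = replicate mean at a twofold rise or more, about +100% in these data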;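 also: firefly luciferase made from a UUG start codon reports start codon fidelity; reporter light over untreated wells divided by growth signal over untreated wells; some hits fall short of that in this replicate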
# Rce1 inh: inhibitors of yeast Ras-converting enzyme; yeast membranes, quenched prenylated peptide cleavage fluorescence; Q03530; calls only; actives 0.27% (n = 290,000);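 active = fall in fluorescence gain of 50% or more versus controls, with final raw signal at or below 3038400; inconclusive = same 50% fall but final raw signal above 3038400; inactive = fall in fluorescence gain under 50%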;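 also: plate controls were neutral control wells for no effect and wells lacking membranes for full effect; tested at 10 µM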
# CSC inhib: blocks cancer stem cells. actives 1.1% (n = 300,000). AID 2717. inhibition, % at 7.5 µM. cancer stem cell-like cells viability, luminescence;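 active = mean at 75% or more and at least half the replicates too; inconclusive = mean and replicates disagree; tested in HMLE shEcad cells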;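 also: 0% = median of negative and 100% = median of positive control wells; the first replicate is given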
# MT1-MMP act inh: blocks activation of human MT1-MMP | HT1080 RFP-PRO-GFP cells, GFP/RFP ratio fluorescence, overnight; percent of plate control window, DMSO zero | GFP/RFP ratio change, % at 20 µM | actives 0.061% (n = 360,000) | AID 651647;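 active = GFP/RFP ratio change of at least 30% with cell ATP level not reduced by more than half and red fluorescence within 50% of control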; also: strong numbers were not always called active
#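 system = RFP-PRO-GFP reporter HT1080 cells | dosing = 20 µM single dose, 1% DMSO | timing = overnight cell settling, then overnight compound exposure, 37 °C, 5% CO2 | read-out basis = GFP/RFP fluorescence ratio | controls = DMSO and RFP-L50D-GFP cell wells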
# Env fusion inh: inhibitors of HIV Env-mediated cell fusion | HeLa-JRFL Env/CEM21 cell fusion, luciferase | inhibition, % at 12.3 µM | actives 1.1% (n = 360,000);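 active = mean replicate inhibition score of at least 50 and every replicate individually at or above 50; inconclusive = only one of the two criteria met; inactive = mean below 50 and not all replicates reaching 50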;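 also: 0% = plate neutral controls and 100% = maraviroc near 300 nM; one replicate is shown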
# eIF4H FP inh: inhibitors of RNA binding by human eIF4H; Q15056; eIF4H fluorescence polarization binding assay; inhibition, % at 35 µM; actives 0.94% (n = 290,000);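 active = 50% or more with normal probe brightness, or confirmed in later tests; inconclusive = above 50% with abnormal brightness, or retests that disagree; inactive = below 50% or failed in later tests; about a fifth of its hits are not listed in these tables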;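 also: calls also rest on retests at 20 µM and on dose response follow-up; 0% = protein and probe with vehicle and 100% = probe without protein; strong numbers were not always called active; many hits fall short of the cut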
# eIF4H FP inh retest: recorded beside eIF4H FP inh, whose call it bears; inhibition, %; compound at 20 µM; confirmation average;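 mean of two retest wells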
# PABP polyA inh retest: recorded beside PABP polyA inh, whose call it bears; inhibition, %; compound at 20 µM; confirmation repeats;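 mean of two retest wells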
# MT1-MMP act inh RFP: further read-out of MT1-MMP act inh, marked with its call; RFP signal change, %; measured here: RFP expression control read;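 0 = vehicle wells; hits needed this value within 50% of zero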
# * = called active by the depositor; i = inactive; ? = inconclusive; . = not tested or not shown.
SMILES,PABP polyA inh,Yeast UUG start,Rce1 inh,CSC inhib,MT1-MMP act inh,MT1-MMP act inh RFP,Env fusion inh,eIF4H FP inh,others
COc1ccc(-c2cc(CCCC(=O)NCCc3cc(OC)ccc3OC)no2)cc1,-4,-14,i,-15,9,1,-1,-7,
CC(C)c1ccc(N2C(=O)CC(Sc3ncn[nH]3)C2=O)cc1 (stereo unspecified),1,-17,i,-9,6,21,-26,-2,
Cc1ccc(NC2=NC(c3ccccc3)n3c(nc(C)cc3=O)N2)c(C)c1 (stereo unspecified),4,-22,i,0,2,-1,-20,-12,
CCOC(=O)N1CCN(C(=O)CCc2c(C)nc3nc(C)nn3c2C)CC1,-3,-19,i,-10,4,4,-5,-9,
C/C=C/c1ccc(OCC(=O)NNC(=O)CN(C)S(=O)(=O)c2ccc(C)cc2)c(OC)c1,.,20,.,-3,-2,1,.,.,
CCN=C1S/C(=C\c2ccc(N3CCOCC3)cc2C)C(=O)N1CC,5,.,i,56,-6,-10,18,3,
Cc1cc(NC(=O)CSc2nnc(-c3ccccc3Cl)o2)no1,3,-9,i,-6,3,4,-40,10,
CCOc1ccc(CN2CCN(S(=O)(=O)c3ccc(NC(C)=O)cc3)CC2)cc1OC,4,.,i,1,.,.,.,-2,
CCOc1ccccc1N(C)C(=O)C1CCN(S(=O)(=O)c2cccc3nonc23)CC1,2,9,i,-5,-5,-1,.,-13,
Cc1c(NC(=O)c2ccc(F)cc2)c(=O)n(-c2ccccc2)n1C,-7,-25,i,-8,-1,1,14,-4,
CCOc1cc(NC(=S)Nc2cccc(OC)c2)c(OCC)cc1NC(=O)c1ccc(C)cc1,-5,7,i,-7,3,5,-41,6,
C=C1CCC[C@]2(C)C[C@H]3OC(=O)C(CN4CCOCC4)[C@H]3C[C@@H]12 (stereo partly specified),4,-11,i,12,-3,-4,9,-9,
CC(=O)Nc1ccc(S(=O)(=O)NC2(C(F)(F)F)NC(=O)N(c3ccc(Cl)cc3)C2=O)cc1 (stereo unspecified),-12,.,i,-2,-4,0,6,-5,
Cc1ccc(-c2nnn(CC(=O)N3C(C)CCCC3C)n2)cc1 (stereo unspecified),-11,4,i,-13,0,0,-1,-6,
COc1c(Cl)cc(Cl)cc1C(=O)Nc1ccccc1N1CCN(C(C)=O)CC1,.,.,i,-10,-3,-1,.,.,
O=C(COC(=O)CCC(=O)N1CCOCC1)Nc1ccc(Br)cc1Br,.,6,.,5,-2,3,-2,.,
CC(C)C[C@H](NC(=O)c1[nH]cnc1C(=O)N[C@H](C)c1ccccc1)C(=O)OC(C)(C)C,7,-5,i,45,-24,-24,15,-4,
COc1cc(C(CCN2CCN(c3ccccc3)CC2)c2c(OC)cc(OC)c3ccc(=O)oc23)cc(OC)c1OC (stereo unspecified),-2,-2,i,2,3,-1,-6,-3,
Nc1n[nH]c2ccccc12,-1,.,i,-7,-5,4,8,-6,
C#Cc1ccc([C@H]2C=C(C(=O)OCC=C)O[C@@H](OCc3ccc(CO)cc3)C2)cc1,.,8,i,-8,1,-1,11,.,
O=C(CN1C(=O)NC2(CCCC2)C1=O)c1ccc(Cl)s1,.,.,i,7,1,9,11,.,
CCCC(=O)c1ccc(-c2ccccc2)cc1,9,.,i,-7,4,4,.,-13,
CN1CCN(NC(=O)c2cc(-c3cccc(Cl)c3)nc3ccccc23)CC1,-5,.,i,-5,2,-6,7,3,
Cc1ccc(N(CCC#N)C(=O)CSc2ccc3c(c2)OCCO3)cc1,-6,.,i,-2,-2,-4,.,0,
CSCCC(NC(=O)c1ccc(Cl)cc1)C(=O)OCC(=O)Nc1cc(Cl)ccc1C (stereo unspecified),-5,3,i,-6,-2,1,0,-5,
CC(=O)c1c(C)[nH]c(C(=O)Nc2ccccc2N2CCOCC2)c1C,7,-10,i,-18,6,4,-2,6,
Cc1ccc(C(=O)Nc2sc(C)c(-c3ccccc3)c2C(N)=O)cc1[N+](=O)[O-],7,-9,i,-12,3,-4,-259,-7,
COc1cc(OC)cc(C(=O)Nc2cc(C)on2)c1,-5,-15,i,-3,-1,0,-8,1,
O=C(Cn1c(=O)oc2cc(S(=O)(=O)N3CCCC3)ccc21)N1CCN(C2CCCCC2)CC1,-5,-10,i,8,-4,7,1,6,
CC1=C(c2ccc(C)cc2)S(=O)(=O)N(CC(=O)O)C1=O,1,-10,i,-11,4,0,-10,-6,
CCCCN(C(=O)C1CCC1)c1c(N)n(CC(C)C)c(=O)[nH]c1=O,.,.,i,2,-3,0,.,.,
Oc1ccc(C[C@@H]2CNC(=S)N2CCc2cc(C(F)(F)F)cc(C(F)(F)F)c2)cc1,-1,-20,i,4,-1,-7,13,-10,
COc1nc2ccccc2c(=O)n1OCC(C)C,2,-12,i,1,3,3,5,-2,
COc1ccc(-c2coc3cc(O)ccc3c2=O)cc1OC,-2,-14,i,-5,-3,2,.,-1,
Cn1c(SCC(=O)Nc2nccs2)nnc1-c1ccco1,-12,-9,i,.,3,0,.,-6,
O=C(O)c1[nH]c2ccccc2c1C(c1ccccc1)c1c(C(=O)O)[nH]c2ccccc12,9,4,i,2,1,2,-2,5,
CCCSc1nnc(CNS(=O)(=O)c2ccc(C)cc2)n1C,-8,-12,i,-19,1,1,6,3,
CC(NC(=O)CCCc1nnc2n(C)c(=O)c3sccc3n12)c1ccccc1 (stereo unspecified),4,-20,i,3,1,2,11,-3,
O=C(Cc1c(Cl)cccc1Cl)Nc1ccncc1,-10,-15,i,.,-2,-6,24,3,
O=C(c1cc([N+](=O)[O-])cc([N+](=O)[O-])c1)N1CCCc2ccccc21,1,.,i,-1,6,5,1,0,
O=C(COc1cccc2c1CCN(Cc1ccccc1)C2=O)NCc1ccco1,-12,5,i,20,1,-3,12,-7,
Cc1sc2ncnc(SCC(=O)c3cccs3)c2c1C,-16,-13,i,-7,0,-5,-99,-7,
Cc1ccc(NC(=O)C2CCN(S(=O)(=O)c3ccc(C(C)(C)C)cc3)CC2)cc1S(=O)(=O)N1CCOCC1,.,-8,.,.,-3,-17,0,.,
COc1cccc(-c2nc(C=O)cs2)c1,-8,.,.,.,4,4,5,-14,
COc1cccc2cc(/C(C)=N/Nc3nc(-c4cc(C)ccc4C)cs3)c(=O)oc12,-3,-27,i,7,6,4,-138,-3,
CCOC(=O)C1CCCN(S(=O)(=O)c2cc3c4c(c2)CCN4C(=O)CC3)C1 (stereo unspecified),.,4,i,4,4,-1,2,.,
COC(=O)c1ccc(NS(=O)(=O)c2cc(-c3cc(C)no3)ccc2OC)cc1,4,-17,i,61,-6,-12,-8,-12,
Cc1ccc(NC(=O)CC2C(=O)OCC3CCCCN32)cc1Cl (stereo unspecified),?,-17,i,8,1,1,13,-2,
Cc1nn2c(=O)[nH]cnc2c1Cl,.,-11,.,.,1,1,-3,.,
COc1nc(C)cc(C)c1S(=O)(=O)c1ccc(Cl)cc1,8,-11,i,-10,-1,1,-1,5,
# (continued)
SMILES,PABP polyA inh,Yeast UUG start,Rce1 inh,CSC inhib,MT1-MMP act inh,MT1-MMP act inh RFP,Env fusion inh,eIF4H FP inh,others
C[C@H](NC(=O)C1CCN(S(=O)(=O)c2ccccc2)CC1)C(=O)NCc1ccco1,8,.,i,-8,5,4,3,3,
O=C(Nc1ccc2c(c1)OCO2)C1CCCCN1S(=O)(=O)c1ccccc1 (stereo unspecified),4,-35,i,-10,-1,-1,.,-1,
O=C(Nc1ccc(Br)cc1F)c1nc[nH]c1C(=O)N1CCc2ccccc2C1,.,-14,.,.,6,5,-20,.,
CC[n+]1c(/C=C/c2c[nH]c3ccccc23)ccc2cc(C)ccc21,-5,.,.,.,.,.,-6,?,
CC(=O)Nc1ccc(Nc2ncnc3c2nnn3Cc2ccccc2Cl)cc1,-2,1,i,.,4,1,-3,7,
CC(=O)Cc1nsc(NC(=O)c2ccco2)n1,-8,-1,i,-14,2,1,.,2,
COc1ccc(NC(=O)CSc2nc3n[nH]c(C)c3c(=N)n2-c2ccc(Cl)c(C)c2)cc1OC,-4,-16,i,-12,5,2,.,-6,
C=CCSC1=N/C(=C\c2cc(OCC)c(OC(C)=O)c([N+](=O)[O-])c2)C(=O)S1,5,.,i,5,-2,0,.,96,eIF4H FP inh retest=18;PABP polyA inh retest=31
O=C(Nc1ccn(CCCNCc2ccc3c(c2)OCO3)c(=O)n1)OCc1ccccc1,.,1,.,.,2,4,-45,.,
Cc1ccc(C(=O)N/C(=C\c2ccc(-c3cc(Cl)ccc3Cl)o2)C(=O)NCc2cccnc2)cc1,6,.,i,-9,-2,-6,.,5,
Nc1c(Cl)cc(-c2cn(CCC(=O)O)c(-c3ccc(Cl)nc3)n2)cc1Cl,.,-18,.,-7,1,4,21,.,
Cc1[nH]c2ccccc2c1CN1CCc2ccccc2C1,19,-14,i,-9,-6,5,.,5,
O=C(Cn1ccc(NC(=O)OCc2ccccc2)nc1=O)NCCCn1ccnc1,.,0,.,-9,5,-1,-6,.,
C[C@@H]1NC(=O)N(CCCn2ccnc2)C1=O,-1,-14,i,-10,1,5,3,-7,
COc1ccccc1NC(=O)c1ccc(NC(=O)COC(=O)c2cccnc2Cl)cc1,.,.,.,-9,1,1,-18,.,
O=C(Nc1ccc(Cl)cc1)N1CCCN(Cc2ccc(F)cc2)C1,-8,-13,i,11,0,-1,28,6,
CCOC(=O)c1cnc2ccc(C(=O)OC)cc2c1NCCc1ccc(OC)c(OC)c1,-3,.,i,.,-2,-5,15,-3,
O=C(CN1C(=O)CCC1=O)Nc1nc(-c2cccs2)cs1,1,-16,i,.,3,0,.,-4,
CCS(=O)(=O)N1CCN(C2CCC(C)CC2)CC1 (stereo unspecified),4,4,i,2,6,4,.,-4,
O=C(CN1C(=O)c2ccccc2C1=O)Nc1cccc2cccnc12,2,1,i,-1,-2,2,-131,5,
CS(=O)(=O)N(CC(=O)NC1CCCCC1)c1cccc(Cl)c1,10,-9,i,-14,5,5,.,12,
Cc1c(-n2cccc2C=O)cccc1[N+](=O)[O-],0,.,i,-7,-1,-3,-31,-6,
CC(OC(=O)Cn1cc(C(F)(F)F)ccc1=O)C(=O)NC(C)c1ccc(Cl)cc1Cl (stereo unspecified),.,1,.,.,-2,2,-18,.,
Cc1ccc(-c2cc(C(=O)N3CCC(C)CC3)c3ccccc3n2)cc1,-6,13,i,-7,-7,2,.,30,
CO/N=C/c1cccn1-c1nccc(OC)c1C#N,-5,.,.,13,1,0,-18,4,
O=C(O)c1cccc(-n2nnnc2SCc2ccccc2Cl)c1,7,.,i,-2,4,2,-11,1,
CC(NCCC(c1ccccc1)c1ccccc1)c1ccccc1 (stereo unspecified),2,-4,i,18,0,4,-12,-8,
CCn1c(SCc2nc3ccccc3c(=O)[nH]2)nnc1-c1ccncc1,2,-22,i,0,1,7,-79,1,
CCC(CO)Oc1cc(NCc2ccc(O)cc2)c2ncn(C(C)C)c2c1 (stereo unspecified),.,5,.,.,3,1,6,.,
Cc1cccc(C(=O)N2CCCC(CCC(=O)N3CCN(c4ccccn4)CC3)C2)c1C (stereo unspecified),2,-28,i,-9,-2,-23,13,2,
COc1ccc(C(=O)NCc2nnc(SCC(=O)NCc3ccco3)o2)cc1,3,-4,i,15,1,3,8,-6,
